Compound activity deposited in PubChem by National Center for Advancing Translational Sciences (NCATS).
ClpP mod = qHTS Assay for Activators of ClpP. AID 651965, 2013. hit rate 1.9% among 340,000. Potency, µM (highest dose often 57.5 µM), without a hit: top-dose activity change, negative = active. purified B. subtilis ClpP, FRET peptide cleavage, 20 min; active = well fitted falling curve with a large enough effect; inconclusive = small, poorly fitted or top-dose-only effect; inactive = no such curve, though single readings can be large or run the other way; note: potency is the fitted concentration of half-maximal effect; the source files actives as falling curves though it sought activators and does not explain the sign; nearly all actives have a fitted effect of over 65% in size; many hits overshoot -100%
Target sequence (P80244 whole entry, looked up): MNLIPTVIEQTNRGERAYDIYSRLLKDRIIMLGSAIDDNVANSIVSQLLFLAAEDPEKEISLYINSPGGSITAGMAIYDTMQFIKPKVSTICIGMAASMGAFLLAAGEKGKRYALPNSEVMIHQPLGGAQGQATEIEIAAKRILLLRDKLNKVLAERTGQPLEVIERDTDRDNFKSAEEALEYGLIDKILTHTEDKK
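FRET quenching reversal measured ClpP activation: 10 microg/mL B. subtilis ClpP at pH 8 with the FRET-FV decapeptide, read at 430 nm after 320 nm excitation. The 20-min minus 0-min signal was scaled between DMSO/no-enzyme wells and ADEP (5.8 microM final).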
gsp agonist = activates gsp, the McCune-Albright syndrome mutation. gsp mutant cells, cAMP HTRF, 30 min; control for the full effect not named in the record. Potency, µM (top dose mostly 76.9 µM), without a hit: at the highest dose activation (cAMP increase), actives largely listed as activators. hit rate 0.13% among 340,000. AID 624287; active = well fitted activation curve with a large enough effect; inconclusive = small, poorly fitted or top-dose-only effect, or another doubt; inactive = no such curve, though single readings can be large or run the other way; cell line not stated here;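 note: phosphodiesterase inhibitor Ro 20-1724 added with compounds to block cAMP breakdown; potency is the fitted concentration of half-maximal effect; nearly all actives have a fitted effect of over 60% in size; about a fifth of the inactives were tested at one dose only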
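Cells in DMEM/10% FBS with G418 were pretreated with compounds in DMSO plus […] (300 uM stock) for 30 min at 37C. cAMP was measured by HTRF (cAMP-d2 plus anti-cAMP antibody-K) after 30 min at room temperature.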
D2 agonist = activates the human D2 dopamine receptor; P14416; DiscoveRx PathHunter D2 beta-arrestin, luminescence, 90 min; 100% = 57 uM dopamine signal; activation, % (no concentration beside the values); hit rate 0.084% among 360,000; AID 624465; in the data active = activation above about 40%; inconclusive = about 15% to 40%; inactive = below about 15%; note: compound concentration not given in the record; the text of the record calls up to 30% inactive
Target sequence (P14416 whole entry, looked up): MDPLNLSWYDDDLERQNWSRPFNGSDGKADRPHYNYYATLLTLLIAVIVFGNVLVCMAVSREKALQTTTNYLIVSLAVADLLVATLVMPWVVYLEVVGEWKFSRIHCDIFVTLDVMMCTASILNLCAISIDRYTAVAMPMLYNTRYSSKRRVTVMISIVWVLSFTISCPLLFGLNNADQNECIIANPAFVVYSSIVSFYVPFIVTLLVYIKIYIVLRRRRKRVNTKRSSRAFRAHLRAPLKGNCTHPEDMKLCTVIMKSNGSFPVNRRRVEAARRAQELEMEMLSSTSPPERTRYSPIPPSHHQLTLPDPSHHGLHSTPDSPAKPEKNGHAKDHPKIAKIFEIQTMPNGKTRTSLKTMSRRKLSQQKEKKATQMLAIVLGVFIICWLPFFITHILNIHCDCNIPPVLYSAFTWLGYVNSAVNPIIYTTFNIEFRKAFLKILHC
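Agonist mode: compounds alone added to overnight-plated D2 PathHunter cells for 90 min at 37 C, with 57 uM final dopamine (EC100) defining full response. Beta-arrestin recruitment detected by chemiluminescent reagent, read after 1 h at ambient temperature.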
Menin-MLL FL inh = menin-MLL binding inhibition, fluorescein peptide. FP activity change, % at 61.4 µM. Fluorescence polarization, fluorescein-MLL peptide displacement from menin. 290,000 tested, under 10 active; inconclusive = falling polarisation curve, or a change in total fluorescence; inactive = total fluorescence flat and polarisation flat or rising; no compound was filed as active; the % refers to the polarisation; negative = inhibition;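 note: % of control where 0% means no effect; inhibitors lower the polarisation; unlabelled MLL peptide was the positive control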
gsp antag = antagonizes gsp, the McCune-Albright syndrome mutation. gsp-mutant cells, cAMP HTRF, 30 min; control for the full effect not named in the record. Potency, µM (titrated, usually from 76.9 µM), for inactives: at the highest dose activity change, negative = inhibition, most hits filed as inhibitors. hit rate 0.4% among 340,000; active = falling curve of any shape with a large fitted effect; inconclusive = falling curve, mostly with a smaller effect; inactive = flat or rising curve; cell line not stated here;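 note: intracellular cAMP measured with PDE inhibitor Ro 20-1724 present during compound exposure; potency is the fitted concentration of half-maximal effect; % is set by controls: 0 for no effect and ±100 for the full control effect; nearly all actives have a fitted effect of over 65% in size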
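Measurement of cellular cAMP by homogeneous time-resolved fluorescence following a 30 min compound exposure at 37C. The PDE inhibitor […] was present throughout; the assay buffer was DPBS with 0.05% BSA and 0.005% Tween 20.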
Sfp PPTase inh = inhibitors of Bacillus subtilis Sfp phosphopantetheinyl transferase; Q9F4F7; Biochemical Sfp PPTase activity, qHTS; Potency, µM, without a hit: max response, negative = inhibition, hits mostly inhibitors; hit rate 3.5% among 310,000; active = well fitted inhibition curve with a large enough effect; inconclusive = small, poorly fitted or top-dose-only effect, or another doubt; inactive = no such curve, though single readings can be large or run the other way;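 note: the enzyme is Sfp with the accession as filed and its product quenches rhodamine fluorescence; potency is the fitted concentration of half-maximal effect; 0% = enzyme reaction without inhibitor and -100% = no enzyme wells; top concentration of the series not given in the record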
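Reaction rates are the 30-min fluorescence difference (ex 525, em 598 nm) in wells containing 15 nM Sfp, 5 uM rhodamine-CoA and 12.5 uM BHQ-2-YbbR at pH 7.6 with 10 mM MgCl2.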
PINK1 expr mod = changes PINK1 expression | Potency, µM (titrated, usually from 76.6 µM), for inactives: at the highest dose activation (PINK1 increase), actives largely listed as activators | PINK1 immunofluorescence, high-content cytometry, 24 h | hit rate 0.2% among 410,000; active = well fitted activation curve with a large enough effect; inconclusive = small, poorly fitted or top-dose-only effect; inactive = flat fitted curve, though single readings scatter; cell line not stated here;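 note: potency is the fitted concentration of half-maximal effect; % of control where 0% means no effect; nearly all actives have a fitted effect of over 65% in size; a mitochondrial uncoupler was the plate control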
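Fluorescence from anti-PINK1 antibody, together with nuclear and cell stains, was scanned on a laser-scanning cytometer. Before staining, stable-line cells were incubated 24 hours with compounds at 5 concentrations; primary antibody 12 h at 10 degrees C.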
Starred values were filed as active, the others as inactive; ? = inconclusive; . = not tested or not shown; & = joins results of further samples; [ ] = remark or other dose. The order is random; any-hit rate near 5.1%.

SMILES	ClpP mod	gsp agonist	D2 agonist	Menin-MLL FL inh	gsp antag	Sfp PPTase inh	PINK1 expr mod
CCc1nccn1S(=O)(=O)c1cccc([N+](=O)[O-])c1	-1.2%	-7%	-2.2	-1.5	2%	15%	2.9%
CC(C)(C)C(=O)Nc1ccc(-c2cn3cccnc3n2)cc1	.	?	-1.6	1.2	9%	19%	2.6%
O=C(CSc1n[nH]c(-c2ccccc2)n1)Nc1ncccn1	.	-3%[15.4 µM]	-2.6	1.5	-6%	15%	0.4%
Cc1occc1C(=O)Nc1cccc(C(=O)O)c1	-2.5%	-6%	-1.0	3.9	6%	18%	0.3%[38.3 µM]
COc1cccc(NC(=O)CN(C)C(C)C(=O)N2CCCC2)c1 (stereo unspecified)	-2.0%	3%	-5.7	.	11%	.	1.2%
O=C(CSc1nc2nn(-c3ccccc3)c(=O)c-2c2n1CCCCC2)Nc1cccc(F)c1	0.7%	0%	2.1	.	?	.	2.4%
O=C(Nc1ccccc1F)Nc1cc(S(=O)(=O)N2CCOCC2)ccc1N1CCCC1	-4.7%	15%[15.4 µM]	3.5	-5.4	-19%	0%	2.9%
CN(C)CCNC(=O)/C(=C/c1ccc(-c2ccc(Cl)cc2Cl)o1)NC(=O)c1ccccc1	-7.1%	23%	-1.7	12	4%	40µM*	-1.7%
Cc1ccc(C)c(N2CCN(C(=O)c3ccc4c(=O)n5c(nc4c3)CCCCC5)CC2)c1	-0.4%	-3%	2.1	2.4	?	-3%	-3.8%
CCOC(=O)c1nnn(CC(=O)NC(=O)Nc2ccc(F)cc2)c1C(=O)OCC	3.0%&1.0%	17%	?	-4.1	-2%	5%	0.5%&2.2%
COc1cccc(-c2cc(C(=O)N3CCCc4ccccc43)no2)c1	0.1%	?	-3.3	0.5	?	1%	-1.0%[38.3 µM]
Cc1cc(NC(=O)c2ccc(C)c(C)c2)no1	0.9%	-8%	5.5	-1.5	7%	13%	0.4%
O=C(NCCc1ccccc1)c1cccc(NC(=O)C2CCCC2)c1	0.0%	.	-2.7	.	-2%	.	-0.3%
Cc1ccc(C(C)C)cc1OCC(=O)Nc1ccc(-n2cnnn2)cc1	-2.3%	12%[15.4 µM]	-2.3	.	-3%	.	0.4%
CCCc1ccc(-c2c(C)sc(N)c2C#N)cc1	8.7%	-25%	1.5	-2.2	-13%	35µM*	4.2%
Cc1cc(C#N)c(C)n1-c1cc(S(=O)(=O)N2CCOCC2)ccc1N1CCCC1	-2.0%	-4%	-4.8	1.7	-22%	40µM*	0.9%
COC(=O)NCCOc1nc(N(C)C)nc(N(C)C)n1	0.7%	2%	-0.9	0.0	12%	6%	0.6%
CCc1cc(C(=O)c2ccc(Br)cc2)c(NC(=O)CN(CC)CC)s1	0.7%	-2%	-5.9	0.8	3%	-3%	18%
O=C(NCCCN1CCOCC1)c1ccc(Sc2cccc(Cl)c2)c([N+](=O)[O-])c1	0.7%	14%	-1.4	1.7	17%	-12%	5.5%
CC1(C)Oc2ccc3ccc(=O)oc3c2/C(=C/O)C1=O	-8.5%	-1%[15.4 µM]	0.2	2.0	2%	0%	-0.5%
Cc1cc(/C=N/NC(=O)c2cccs2)c(C)n1-c1ccccc1	-6.7%	9%	-0.9	-0.5	22%	-15%	5.1%
COCCNc1nnnc2c1sc1nc(N3CCOCC3)c3c(c12)CC(C)(C)OC3	-1.7%	-1%[15.4 µM]	-1.3	0.1	-6%	-2%	-1.2%
OCCC1CN(Cc2cccn2-c2ncccn2)CCN1Cc1ccc(F)cc1 (stereo unspecified)	.	-21%[15.4 µM]	-2.3	-1.0	9%	19%	-1.4%
O=C(O)c1ccc2c(=O)n(-c3ccc(F)c(Cl)c3)c(=S)[nH]c2c1	.	0%[15.4 µM]	1.6	1.6	4%	10%	1.2%
CC(=O)Nc1ccc(S(=O)(=O)NCC(=O)OCC(=O)NC23CC4CC(CC(C4)C2)C3)cc1	-2.4%	-2%	2.1	7.1	6%	3%	-1.5%

The listing continues.
SMILES	ClpP mod	gsp agonist	D2 agonist	Menin-MLL FL inh	gsp antag	Sfp PPTase inh	PINK1 expr mod
CN(C(=O)COC(=O)c1ccc(=O)n(Cc2ccccc2)n1)C1CCCCC1	1.1%	-30%	0.7	.	-4%	.	1.9%
COc1ccc([C@@]2(C(C)C)ON(c3ccccc3C(F)(F)F)C2=O)cc1	-3.0%	2%	-0.4	.	-8%	.	-0.7%
COc1ccccc1C(=O)Nc1ccnn1C1CCN(C2CCSCC2)CC1	0.6%	4%[15.4 µM]	-3.0	?	16%	14%	1.5%
COc1cccc(CCc2nnc(CCC(=O)NC(C)c3c(C)nn(C)c3C)o2)c1 (stereo unspecified)	.	15%[15.4 µM]	1.8	-4.5	0%	12%	-1.6%
Cc1nsc(Nc2ccc([N+](=O)[O-])cc2)c1C#N	.	13%	-11	6.5	0%	-4%	2.1%
COC(=O)c1[nH]c2cc(OC)ccc2c1NC(=O)CCN1CCSCC1	-15%	-2%	-7.2	3.9	3%	15%	0.5%
CC12c3ccccc3C(c3ccccc31)C1C(=O)N(c3ccncc3)C(=O)C12 (stereo unspecified)	-0.9%	-36%[inhibitor]	-0.1	0.2	6%	9%	1.5%
CCn1cc(C(=O)N2CCN(C3CCCCC3)CC2)c2cc(OC)c(OC)cc2c1=O	-9.8%	-21%	-1.2	2.4	11%	20%	0.2%
Cc1c(C(=O)N2CCN(C(c3ccccc3)c3ccccc3)CC2)oc2ccccc12	-2.9%	27%	-5.2	.	-19%	.	2.1%
C[C@H]1CN([C@@H](C)CO)C(=O)CCCn2nncc2CO[C@H]1CN(C)S(=O)(=O)c1cccc(F)c1	1.8%	?	3.3	.	.	.	0.6%
CCn1c(COc2ccccc2)nnc1SCC(=O)CC(=O)Nc1ccccc1OC	0.2%	2%	-0.7	?	-13%	-9%	-1.6%[38.3 µM]
O=C(COC(=O)c1cncc(Br)c1)Nc1nnc(-c2ccccc2)o1	-7.0%	41%	-2.5	.	-7%	.	-0.5%
CN(c1ncc(C(F)(F)F)cc1Cl)N1C(=O)C2ONC3(C(=O)CC(C)(C)CC3=O)C2C1=O (stereo unspecified)	.	16%[15.4 µM]	-3.6	-2.4	10%	5%	8.5%
Cn1c(SCCCC(=O)c2ccc(F)cc2)nnc1-c1ccncc1	-3.1%	?	-0.6	3.8	-12%	-3%	-0.2%
Cc1ccc(SCC(=O)NC2CCCCCC2)cc1	-0.8%	1%[15.4 µM]	0.5	.	-12%	6%	0.0%
CCc1nc2ccc(C(=O)NCCN3CCCC3)cn2c1N(C)Cc1ccc(OC)cc1	-3.2%	.	14	.	.	.	1.8%
Cc1ccc(N(C(=O)c2snc(C(N)=O)c2N)C(C(=O)NCC2CCCO2)c2c[nH]c3ccccc23)cc1 (stereo unspecified)	.	10%[15.4 µM]	-0.6	0.5	?	9%	2.6%
COc1ccccc1CNC(=O)C1CC(c2cccc([N+](=O)[O-])c2)=NO1 (stereo unspecified)	-2.6%	11%	1.0	-3.0	-2%	-3%	1.5%
CCO[C@H]1OC(C(=O)N2CCN(Cc3ccc4c(c3)OCO4)CC2)=C[C@@H](C)[C@@H]1CCCO	1.7%	0%	-0.1	-1.4	5%	9%	-1.6%
C=CCn1c2ccccc2c2nnc(SCC(=O)OC)nc21	-0.5%	2%	-2.5	.	.	.	-0.4%
CCOC(=O)c1c(NC(=O)CSc2nnc(CNC(=O)c3ccco3)n2C)sc2c1CCC2	-5.7%	-15%	-0.7	1.6	-15%	-14%	-4.6%[38.3 µM]
Cc1ccc(-c2csc(N3CCC(C(N)=O)(N4CCCCC4)CC3)n2)cc1	2.3%	19%	-1.7	3.7	?	10%	4.8%
Cn1ncc(Cl)c1C(=O)NNC(=O)Nc1cccc2ccccc12	-23%	15%	-5.4	.	-7%	11%	1.0%
O=C(Cc1ccc(Cl)cc1)N/N=C1\CCCc2ccccc21	0.8%	3%	-1.1	4.4	-14%	-4%	0.5%[38.3 µM]
CCCOC(=O)Cc1n[nH]c(=O)[nH]c1=O	-0.9%	23%	-1.5	4.9	-7%	-2%	-2.1%

The results go on:
SMILES	ClpP mod	gsp agonist	D2 agonist	Menin-MLL FL inh	gsp antag	Sfp PPTase inh	PINK1 expr mod
COc1ccc(CNC(=O)/C=C/c2ccc(S(=O)(=O)NCc3ccco3)cc2)cc1OC	0.7%	8%[15.4 µM]	-4.1	-1.1	-1%	12%	1.6%
COc1cc2cc(C(=O)O)n(C)c2c(OC)c1OC	13µM*	10%	-4.9	0.6	-9%	19%	1.8%
COc1ccc2c(C)c(C(=O)N3CC[C@@H](N4CCC(O)CC4)[C@H](O)C3)oc2c1	-7.6%	-8%	3.5	2.6	13%	3%	-0.2%
O=C(CSc1ncnc2sc3c(c12)CCCC3)N1CCC(c2noc3ccc(F)cc23)CC1	-1.3%	-69%[inhibitor]	-0.5	1.1	1%	-7%	4.3%[38.3 µM]
O=C1NC(Cc2ccccc2)C(=O)Nc2ccc(Br)cc21 (stereo unspecified)	-0.5%	-19%	5.6	-4.4	4%	21%	0.4%
C/C(=N\NS(=O)(=O)c1cccc([N+](=O)[O-])c1)c1cc2ccccc2o1	0.1%	29%	-2.1	0.0	?	-21%	1.1%
COc1ccc(-c2cc(C(=O)N3CC4(C)CC3CC(C)(C)C4)no2)cc1 (stereo unspecified)	-6.9%	11%	-2.5	1.6	8%	3%	-0.3%[38.3 µM]
CC(C)(Oc1ccc(Cl)cc1)C(=O)NC1CCN(Cc2ccccc2)CC1	.	-2%[15.4 µM]	-0.1	.	4%	.	0.9%

Whole records from above.
Record of O=C(CSc1ncnc2sc3c(c12)CCCC3)N1CCC(c2noc3ccc(F)cc23)CC1 → ClpP mod = -1.3%; gsp agonist = -69%[inhibitor]; D2 agonist = -0.5; Menin-MLL FL inh = 1.1; gsp antag = 1%; Sfp PPTase inh = -7%; PINK1 expr mod = 4.3%[38.3 µM]
Record of COc1ccc(CNC(=O)/C=C/c2ccc(S(=O)(=O)NCc3ccco3)cc2)cc1OC → ClpP mod = 0.7%; gsp agonist = 8%[15.4 µM]; D2 agonist = -4.1; Menin-MLL FL inh = -1.1; gsp antag = -1%; Sfp PPTase inh = 12%; PINK1 expr mod = 1.6%
